tim10-1 inh: inhibits growth of tim10-1 mutant yeast; 330,000 compounds, 2.2% hits; S. cerevisiae tim10-1 ts strain growth, BacTiter-Glo, 24 h; inhibition, % at 20 µM; AID 463190;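 active means inhibition of at least 40%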;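 further: mutant grown at 25 °C; 0% = DMSO wells with yeast and 100% = wells holding no yeast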
tim23-1 inh: inhibits growth of tim23-1 mutant yeast. AID 463212. 330,000 compounds, 1.3% hits. S. cerevisiae tim23-1 growth, BacTiter-Glo luminescence, 24 h. inhibition, % at 20 µM;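 active means growth inhibition of the mutant yeast at or above 50%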;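 further: temperature-sensitive mutant grown at 25 °C; plate controls were DMSO-treated mutant yeast for no effect and medium wells lacking yeast for full effect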
XBP1 UPR activ: adaptive UPR (XBP1) activation. CHO-XBP1 luciferase reporter, IRE1-XBP1 UPR activation, luminescence; percent of tunicamycin response, DMSO as zero. activation, % at 20 µM. 330,000 compounds, 0.33% hits. AID 463104;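 active means versus positive control, 20 µM dose yields 30% or more activation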;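 further: 100% = tunicamycin at 10 µg/mL and 0% = DMSO only wells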
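Signal: luciferase luminescence; Assay system: CHO-XBP1 luciferase reporter cells; Amount: one thousand reporter cells per well; Dosing: 20 µM single concentration, DMSO 1%; Benchmarks: high control tunicamycin 10 µg/mL final, low control DMSO vehicle only; Schedule: 6 h compound exposure at 37 °C, 5% CO2; Evaluation: percent activation relative to tunicamycin reference.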
Mdm2-MdmX inh: human Mdm2/MdmX binding inhibition; SaOS-2 split-luciferase Mdm2/MdmX complementation, luminescence; inhibition, % at 8 µM; 330,000 compounds, 3% hits; O15151+Q00987;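 active means inhibition of at least 50% at 8 µM in the primary screen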
Target sequence (O15151 whole entry, looked up): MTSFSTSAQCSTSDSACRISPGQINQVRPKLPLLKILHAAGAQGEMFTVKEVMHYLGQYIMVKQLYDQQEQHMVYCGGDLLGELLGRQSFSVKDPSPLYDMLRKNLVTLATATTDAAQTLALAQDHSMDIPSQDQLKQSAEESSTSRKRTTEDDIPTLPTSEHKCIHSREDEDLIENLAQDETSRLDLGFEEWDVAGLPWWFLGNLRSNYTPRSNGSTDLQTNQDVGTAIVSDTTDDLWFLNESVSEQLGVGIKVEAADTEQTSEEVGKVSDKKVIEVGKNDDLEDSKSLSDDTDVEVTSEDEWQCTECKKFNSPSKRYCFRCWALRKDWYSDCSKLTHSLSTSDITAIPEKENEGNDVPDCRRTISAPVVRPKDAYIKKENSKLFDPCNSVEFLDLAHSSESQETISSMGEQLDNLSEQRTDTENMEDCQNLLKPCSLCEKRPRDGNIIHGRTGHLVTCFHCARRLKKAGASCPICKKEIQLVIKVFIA
Target sequence (Q00987 whole entry, looked up): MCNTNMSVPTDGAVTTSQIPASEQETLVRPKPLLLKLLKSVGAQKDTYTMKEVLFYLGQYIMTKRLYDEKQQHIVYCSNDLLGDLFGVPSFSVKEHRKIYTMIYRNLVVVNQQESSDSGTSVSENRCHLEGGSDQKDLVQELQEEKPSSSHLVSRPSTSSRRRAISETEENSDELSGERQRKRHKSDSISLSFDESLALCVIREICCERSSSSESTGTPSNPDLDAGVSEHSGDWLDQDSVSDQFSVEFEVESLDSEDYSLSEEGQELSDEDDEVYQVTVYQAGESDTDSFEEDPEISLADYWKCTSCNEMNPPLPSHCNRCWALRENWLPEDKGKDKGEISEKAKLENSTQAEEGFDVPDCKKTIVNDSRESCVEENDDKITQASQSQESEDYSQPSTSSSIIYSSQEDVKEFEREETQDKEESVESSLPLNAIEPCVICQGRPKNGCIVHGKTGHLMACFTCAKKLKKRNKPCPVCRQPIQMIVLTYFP
TIM10 inh: TIM10 yeast growth inhibition. 330,000 compounds, 1.4% hits. S. cerevisiae TIM10 strain growth, BacTiter-Glo luminescence, 24 h. inhibition, % at 10 µM;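 active means inhibition of 40% or more at the single tested concentration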;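 further: wild-type TIM10 isogenic control strain grown at permissive 25 °C; 0% = DMSO yeast wells and 100% = minimal medium wells without yeast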
APJ antagonist: blocks the human apelin receptor APJ; P35414; CHO-K1 APJ beta-arrestin complementation, luminescence; inhibition, % at 20 µM; 330,000 compounds, 0.32% hits; AID 2521;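 active means inhibition above about 40% at 20 µM, limit read from the data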;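 further: cells challenged with 10 nM apelin-13 agonist together with compound; plate controls were apelin-13 plus DMSO wells for no effect and DMSO wells lacking apelin-13 for full effect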
CHOP UPR activ: apoptotic UPR (CHOP) activation; CHO-CHOP luciferase reporter, luminescence; percent of tunicamycin response over DMSO baseline; 330,000 compounds, 0.34% hits; AID 449763; activation, % at 10 µM;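 active means at 10 µM dose, activation of 40% or more, normalized to positive control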;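 further: 100% = tunicamycin at 10 µg/mL and 0% = DMSO alone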
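Assay system: CHO cells with stable CHOP pathway luciferase reporter; Buffer or medium: F12 plus 10% serum; Times: 16-18 h cell attachment, then 6 h compound exposure, 37 °C; Signal: luciferase luminescence; Read-out basis: percent activation relative to tunicamycin control; Control set: tunicamycin high control, DMSO low control.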
APJ agonist: APJ receptor agonism; P35414; CHO-K1 APJ PathHunter beta-arrestin, luminescence; 0% DMSO wells, 100% apelin; activation, % at 20 µM; 330,000 compounds, 0.11% hits; AID 2520;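 active means activation more than six SD over the plate average, tested at 20 µM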;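 further: 0% = DMSO alone and 100% = apelin-13 at 10 nM; some results filed as inactive read as strong as hits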
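Test system: CHO-K1 APJ beta-arrestin complementation cell line. Amount: cell density 1000 per well. Controls: DMSO negative, 10 nM Apelin-13 positive. Signal: luminescent beta-gal fragment complementation, chemiluminescent substrate. Read-out basis: agonist-driven arrestin binding to APJ. Timing: compound stimulation 90 min at 25 °C, detection 60 min.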
An asterisk follows results filed as active.

SMILES	tim10-1 inh	tim23-1 inh	XBP1 UPR activ	Mdm2-MdmX inh	TIM10 inh	APJ antagonist	CHOP UPR activ	APJ agonist
FC(F)(F)c1cnc(-c2cnc3c(-c4ccc(Cl)cc4)cnn3c2)c(Cl)c1	7	5	2	-43	-7	-18	0.0	6
Cc1ccc(Nc2ncccc2C(=O)O)cc1C	-8	-12	1	-10	2	2	2.5	-3
NC(=O)COc1ccc(C(=O)/C=C2/C(=O)Nc3ccccc32)cc1	34	30	2	34	35	8	11	-1
Cc1[nH]c2ccccc2c1/C=N/NC(=O)c1cccc(Br)c1	21	22	0	8	18	2	3.2	-1
CC(C(=O)NC(C)(C)C)N(Cc1cccs1)C(=O)CCN1CCc2ccccc21 (stereo not given)	24	18	-1	15	25	-4	-0.6	-4
O=C(Oc1cccc2cccnc12)c1cccc([N+](=O)[O-])c1	4	-2	12	-2	8	-31	8.5	-1
COc1ccccc1-n1ccnc1SCC(=O)NCC1CCCO1 (stereo not given)	3	-5	1	6	-7	14	1.2	-3
CCc1nnc(NC(=O)c2nc(S(=O)(=O)Cc3ccc(C)cc3)ncc2Cl)s1	-4	12	-7	95*	8	3	51*	1
CC(=O)Nc1nonc1-c1nc2ccccc2n1CC1CC1	28	9	1	19	11	6	-0.8	-4
CCOC(=O)C/C(C)=N/NC(=O)COc1ccccc1C	-2	10	-1	11	2	20	1.1	-4
CCOC(=O)C1CCCN(c2nc3ccccc3nc2C(C#N)C(=O)OC(C)C)C1 (stereo not given)	5	35	-2	0	11	16	0.7	-4
Cc1cc(C)c(NC(=O)C2CCCO2)c(C)c1 (stereo not given)	15	7	-2	-8	1	-4	-1.2	-4
NC(=O)c1nn(Cc2ccccc2)c(=O)c2ccccc12	-8	3	-2	9	12	18	0.0	-3
Cn1c(=O)c2c(nc(N/N=C/c3ccncc3)n2Cc2ccccc2)n(C)c1=O	6	12	0	45	33	-6	-0.6	-4
CCC(=O)NS(=O)(=O)c1cccnc1Nc1ccccc1Cl	-8	-2	-1	15	-17	-16	1.3	2
CC(=O)c1ccc(C(=O)Nc2nnc(-c3ccc(Cl)cc3)o2)cc1	16	7	2	18	5	-61	0.0	-3
O=C(CCNC(=O)c1ccco1)Nc1nc(-c2ccccc2)cs1	6	18	-1	-120	2	-9	3.3	-4
Cc1ccc(CN2C(=O)C(CC(C)C)Nc3ncnc(N4CCOCC4)c32)cc1 (stereo not given)	3	11	4	10	2	23	2.6	-3
Fc1cccc(Cl)c1CSc1ncn[nH]1	16	7	-3	4	1	11	1.4	-2
O=C(O)c1cc(-c2ccccc2Cl)n[nH]1	11	1	2	21	-23	4	-2.6	5
CC(NC(=O)COC(=O)C1CC1C)c1ccccc1 (stereo not given)	0	14	3	-32	2	15	-0.3	-1
CCN1N=C(c2ccccc2)CCC1=O	16	-4	0	27	0	-1	1.7	-3
Cn1nnc(NC(=S)NC(=O)c2cccs2)n1	-5	16	-4	3	12	33	-0.7	-5
CCc1ccc(NC(=O)CSc2ccc(-c3ccco3)nn2)cc1	13	21	1	-4	-1	8	0.1	3
Cc1csc(=O)n1CC(=O)OCC(=O)NC(C)c1ccc(F)cc1 (stereo not given)	3	11	0	-5	-2	5	-1.0	-4
C/[N+]([O-])=C/c1c(OCc2ccccc2)ccc2ccccc12	-7	9	-2	-14	2	-1	1.6	1
Cc1nn(-c2ccccc2)c2[nH]c(=O)c(CNCCN3CCOCC3)cc12	4	0	-3	9	6	6	0.6	5
OCCN1CCN(C(=S)Nc2cccc(C(F)(F)F)c2)CC1	13	6	0	-8	-7	-12	0.5	-3
COc1ccccc1N1C(=O)C2C(C(=O)c3ccccc3)=NN(c3ccccc3OC)C2C1=O (stereo not given)	13	11	-2	7	25	13	-2.3	1
CC(C)[C@H](Nc1ccc(S(=O)(=O)N2CCOCC2)cc1[N+](=O)[O-])C(=O)OCC(=O)N(C(C)C)C(C)C	14	17	0	15	4	-8	0.6	1

Gathered by group: the compounds so far with a furan ring, fused or not (two)
SMILES	tim10-1 inh	tim23-1 inh	XBP1 UPR activ	Mdm2-MdmX inh	TIM10 inh	APJ antagonist	CHOP UPR activ	APJ agonist
O=C(CCNC(=O)c1ccco1)Nc1nc(-c2ccccc2)cs1	6	18	-1	-120	2	-9	3.3	-4
CCc1ccc(NC(=O)CSc2ccc(-c3ccco3)nn2)cc1	13	21	1	-4	-1	8	0.1	3

(listing goes on)
SMILES	tim10-1 inh	tim23-1 inh	XBP1 UPR activ	Mdm2-MdmX inh	TIM10 inh	APJ antagonist	CHOP UPR activ	APJ agonist
Cc1c(OC(C)C(=O)N2C[C@H]3C[C@@H](C2)c2cccc(=O)n2C3)ccc2c3c(c(=O)oc12)CCC3 (stereo not given in full)	16	5	-2	13	-18	0	-2.3	4
COc1ccc(NC(=O)/C(C#N)=C/c2ccc(Br)o2)cc1	-5	11	1	-37	7	21	1.2	0
Cc1cc(C)c(S(=O)(=O)Nc2cccc(/C=C/C(=O)O)c2)c(C)c1	23	-2	1	8	3	15	0.9	0
CC(C)(C)NC(=O)c1nn(Cc2ccccc2)c(=O)c2ccccc12	8	2	0	-12	18	4	1.1	-6
COc1ccc(-c2nnc(-c3ccccc3O)o2)cc1	10	26	-4	-83	23	6	0.7	-6
Cc1c(C(=O)OCC(=O)N(C)Cc2ccc(Cl)cc2)oc2ccccc12	-1	31	-1	-8	-3	8	1.7	-3
O=C(CSc1ccc(-c2cccs2)nn1)Nc1ccccc1	28	11	-1	-12	24	-14	0.3	3
CCCCOc1ccccc1-c1cc(C(=O)O)[nH]n1	7	10	-5	10	-4	4	-2.5	0
CSc1nc(N2CCN(C)CC2)c2c(c1C#N)CC(C)(C)OC2	-1	-10	-3	8	6	1	-0.7	0
O=C(/C=C/NNC(=O)c1ccccc1)c1ccc([N+](=O)[O-])cc1	4	-1	-10	41	19	7	0.6	-4
COc1ccc(-c2csc(NC(=O)c3ccco3)n2)cc1	-15	7	8	-110	-16	22	6.4	-2
CCOc1ccc(Nc2cc(C)nc(-n3nc(C)cc3C)n2)cc1	44*	18	87*	44	42*	3	105*	-1
COc1ccc(C=C(C(C)=O)C(C)=O)cc1OC	28	26	-1	11	22	9	-1.7	2
CCOC(=O)N1CCN(C(=O)c2ccc3c(c2)NC(=O)/C(=C\c2ccc(OC)c(OC)c2)S3)CC1	23	8	-2	38	-3	-3	0.8	-3
O=C(Nc1ccccc1Oc1ccccc1)c1cccc([N+](=O)[O-])c1	29	5	-3	6	0	7	0.2	-1

Of the compounds above, 3 have a cyano group.
SMILES	tim10-1 inh	tim23-1 inh	XBP1 UPR activ	Mdm2-MdmX inh	TIM10 inh	APJ antagonist	CHOP UPR activ	APJ agonist
CCOC(=O)C1CCCN(c2nc3ccccc3nc2C(C#N)C(=O)OC(C)C)C1 (stereo not given)	5	35	-2	0	11	16	0.7	-4
COc1ccc(NC(=O)/C(C#N)=C/c2ccc(Br)o2)cc1	-5	11	1	-37	7	21	1.2	0
CSc1nc(N2CCN(C)CC2)c2c(c1C#N)CC(C)(C)OC2	-1	-10	-3	8	6	1	-0.7	0

The listing continues:
SMILES	tim10-1 inh	tim23-1 inh	XBP1 UPR activ	Mdm2-MdmX inh	TIM10 inh	APJ antagonist	CHOP UPR activ	APJ agonist
O=C1Nc2cc(C(=O)N3CCOCC3)ccc2S/C1=C\c1ccccc1	10	-13	-9	27	-11	9	-0.8	-2
CC1CN(C(=O)COC(=O)Cc2c(F)cccc2Cl)CC(C)O1 (stereo not given)	5	-5	0	4	8	-2	-1.9	-3
COc1ccc(-c2csc3ncnc(N4CCN(c5cccc(OC)c5)CC4)c23)cc1	15	30	-4	39	6	-32	2.8	-5
Cc1ccc(C(=O)NNC(=O)c2ccccc2-n2cccc2)cc1	-9	4	1	13	-9	-6	2.2	-1
CCSc1nc(O)c(C(c2cccc(OC)c2)c2c(O)nc(SCC)[nH]c2=O)c(=O)[nH]1	-3	-3	-3	-27	-11	-4	0.9	4
CCC(NS(=O)(=O)c1c(C)[nH]c(=O)[nH]c1=O)C12CC3CC(CC(C3)C1)C2 (stereo not given)	11	2	2	-17	10	3	-0.4	3
CCC1Nc2ncnc(N3CCOCC3)c2N(Cc2ccc(Br)cc2)C1=O (stereo not given)	14	25	-1	-12	11	14	-0.1	-2
O=C(CSc1cn[nH]n1)Nc1ccccc1F	-1	2	-2	-3	4	13	1.7	-1
CC(NC(=O)COC(=O)CCc1ccccc1)c1ccccc1 (stereo not given)	5	16	0	-19	-6	11	1.7	1
CCC/C=N/NC(=O)c1cc(Br)ccc1O	5	4	-1	-29	-2	-3	-1.3	-2
CC(C)C(C(=O)N1CCOCC1)N1C(=O)c2ccccc2C1=O (stereo not given)	-9	7	-1	15	-5	13	-0.3	1
COc1ccc(C(C)NCCC(c2ccc(OC(C)C)cc2)c2ccccc2OC)cc1 (stereo not given)	26	23	-4	99*	25	25	1.5	-3
O=C(Nc1ccc2oc(=O)ccc2c1)c1ccco1	28	16	-3	-11	8	-3	1.1	0
CC(/C=N/NC(=O)COc1ccccc1C)=N\NC(=O)COc1ccccc1C	16	8	1	41	-8	14	0.1	7
CCOc1ccc(NC(=O)c2cnsn2)cc1	10	22	-4	-39	9	-24	-4.4	2
COc1ccc(-c2csc3ncnc(N4CCN(c5ccccc5O)CC4)c23)cc1	26	40	-6	26	3	-11	-0.6	-2
COc1ccc(NC(=O)N2CCCC2C(=O)Nc2cccc(C)c2C)cc1 (stereo not given)	10	8	-7	-7	-1	5	1.1	-1
CCOC(=O)C1CCN(C(=O)c2ccc3c(c2)NC(=O)/C(=C\c2ccc(C)cc2)S3)CC1	21	47	-6	15	41*	10	-0.5	-1
C/C(=N\NC(=O)c1ccccc1O)c1c(O)cc(C)oc1=O	1	41	0	-14	22	9	1.3	-6
C/C(=N\NC(=O)c1cccnc1)c1c(O)cc(C)oc1=O	7	-1	-1	-4	2	-6	2.2	-1
Cc1[nH]c(=O)[nH]c(=O)c1S(=O)(=O)Nc1cccc(C(F)(F)F)c1	-18	5	-5	28	7	10	2.1	-5
C=CCOc1ccc(C(=O)/C=C2/C(=O)Nc3ccccc32)cc1	84*	88*	5	52*	77*	8	18	-3
Cc1ccc(S(=O)(=O)CC(=O)c2cc3cccc(C)c3oc2=O)cc1	42*	53*	-4	10	1	4	0.2	0
COc1cc(OC)c(OC)cc1CNC(=O)c1ccc(COc2ccccc2)cc1	11	10	-3	-9	-11	-36	3.0	2
CC(/C=C/c1ccc2c(c1)OCO2)=N/NC(=O)c1ccncc1	-5	7	-1	0	5	8	1.1	-2
CCOc1ccccc1NC(=O)c1cccc(N2C(=O)CCC2=O)c1	-17	8	-2	15	-12	-55	0.4	-4
O=C(NC1CCCCNC1=O)c1ccco1 (stereo not given)	8	7	-4	3	-5	3	-1.8	0
C=CC[C@@H]1Cc2c(Br)ccc(Br)c2[C@@H](CC=C)N1	41*	29	-1	-14	-2	17	-0.4	-1
O=C(NNC(=O)c1ccccc1-n1cccc1)c1ccccc1	-17	3	-5	20	-3	11	0.8	1

Single values from the entries so far:
APJ agonist, Cc1cc(C)c(S(=O)(=O)Nc2cccc(/C=C/C(=O)O)c2)c(C)c1 → 0
CHOP UPR activ, COc1ccccc1-n1ccnc1SCC(=O)NCC1CCCO1 (stereo not given) → 1.2
APJ antagonist, O=C(CSc1cn[nH]n1)Nc1ccccc1F → 13
tim10-1 inh, COc1ccc(-c2nnc(-c3ccccc3O)o2)cc1 → 10

Compound activity (PubChem)

An excerpt, so the mix of outcomes need not match the whole.
